NPYLR7 agonist – agonists of mosquito NPYLR7 receptor, primary screen, cell-based, Aedes aegypti, calcium fluorescence, mosquito biting behavior; HEK293T NPYLR7/Galpha15, GCaMP6s calcium fluorescence; activation, % at 10 µM; 270,000 compounds, 0.15% hits; AID 1259423, 2018; in the data active means activation above about 40%;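 further: 0% = vehicle and 100% = reference agonist at the receptor; some compounds past the cut are filed as inactive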
NPYLR7 agonist max-min – further read-out of NPYLR7 agonist, marked with its call; activation, %; measured here: Max-Min RFU normalised activation; some inactives read as strong as hits;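 span of the calcium signal over five minutes; 0% = vehicle and 100% = native peptide agonist; compound fluorescence can raise it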
The depositor's hits bear a star; & = joins results of further samples. The list is partial. The share of hits here may be higher or lower than overall.

item	smiles	NPYLR7 agonist max-min	NPYLR7 agonist
1	O=C(N[C@H]1COC[C@@H]1N1CCCC1)c1ccccc1N1CCOCC1	-8	-6
2	CN(Cc1cc(Cl)cc2c1OCOC2)c1c(N)n(Cc2ccccc2)c(=O)[nH]c1=O	-1	1
3	O=C(c1ccccc1F)N(Cc1ccco1)Cc1nccn1Cc1cccc(Cl)c1	7	-3
4	Cc1ncc(CC(=O)NC(C)c2ccc3c(c2)CCCC3)c(=O)[nH]1 (stereo not drawn)	-7	-8
5	CN(C)c1ccc(/C=C2\N=C(c3ccc([N+](=O)[O-])cc3)OC2=O)cc1	-4	2
6	COc1cccc(-c2nc3ccccn3c2NC(=O)c2cc(C(F)(F)F)cc(C(F)(F)F)c2)c1	-13	-14
7	Cc1cc(NC(=O)N2CCC(c3ccccc3)CC2)no1	-3	-4
8	CCC(C)C(NC(=O)Nc1cccc(C)c1C)C(=O)Nc1nnc(-c2ccc(N(C)C)cc2)s1 (stereo not drawn)	5	-5
9	Cc1cc(NC(=O)C2c3ccccc3Oc3ccccc32)n(-c2nc3c(c(=O)[nH]2)CCC3)n1	1	8
10	COCCN=c1scc(-c2ccc(Br)cc2)n1N=Cc1ccc2c(c1)OCO2	2	-3
11	COc1ccc(-c2nc(SC3CCCC3)c3c(=O)n(C)c(=O)n(C)c3n2)cc1OC	-8	-3
12	CCOC(=O)C1(CCCc2ccccc2)CCN(C(=O)C2CCCCN2C)CC1 (stereo not drawn)	1	4
13	CSc1ccc(CN(Cc2ccco2)C(=O)c2c(F)ccc(C)c2Cl)cc1	-12	-9
14	Cn1cc(OCc2ccc(F)cc2)c(=O)cc1C(=O)NCc1ccc(F)cc1	3	3
15	CC(Oc1ccc(F)cc1F)C(=O)N1CC(c2cccnc2)C1 (stereo not drawn)	8	17
16	CCCn1c(O)cc(=O)[nH]c1=S	-5	-9
17	Cc1ccccc1N1CCN(C(=O)CCN2CCCO2)C(C)C1 (stereo not drawn)	8	17
18	COc1cc(CN2CCn3nc(C(=O)NCC4CCCO4)cc3C2=O)cc(OC)c1 (stereo not drawn)	5	13
19	CCOC(=O)c1cc(C(C)C)sc1NC(=O)C(C)Oc1ccccc1 (stereo not drawn)	7	14
20	O=C(NC(c1ccc(Cl)cc1)c1cccnc1)C1CCN(Cc2ccc(Cl)cc2)CC1 (stereo not drawn)	2	8
21	CCCNC(=O)c1sc2nc(Cc3ccccc3)[nH]c(=O)c2c1C	3	6
22	Cc1cn2c3c(=O)n(Cc4ccccc4F)c(=O)n(C)c3nc2n1CCCO	12	-2
23	CC(C)CNC(=O)c1cccc(CN2CCc3cncnc3C2)c1	3	3
24	CN(CC12CC3CC(CC(C3)C1)C2)C1CCC(=O)N(Cc2ccccc2F)CC1 (stereo not drawn)	3	2
25	CCOC(=O)C1CCN(c2nc3c(-c4cccc(C(F)(F)F)c4)nnn3c3ccccc23)CC1	11	0
26	COc1cccc(C(=O)Nc2nnc(SCc3cc(F)ccc3F)s2)c1	0	-1
27	O=C(CN1C(=O)c2ccccc2C1=O)NCCCN1CCOCC1	-11	-8
28	Cn1cc(CNCCCn2nnc3ccccc32)c(-c2ccccc2F)n1	5	11
29	COC(=O)c1cc(NC(=O)c2ccoc2C)cc(C(=O)OC)c1	5	0
30	CCCn1c(=S)[nH]c2sc3c(c2c1=O)CCC3	11	12

The list continues:
item	smiles	NPYLR7 agonist max-min	NPYLR7 agonist
31	Cc1cc(C)c(C)c(OCCCNC(=O)c2scnc2C)c1	9	14
32	CCC(=O)C1=C(c2ccc(Cl)cc2)N(C(=O)CC)n2cnnc2S1	2	3
33	C=CCNc1ccc(S(C)(=O)=O)cc1[N+](=O)[O-]	-3	0
34	S=c1n(CN2CCOCC2)nc(-c2cccs2)n1-c1ccccc1	-2	4
35	Cc1ccc(CNc2nc(Cl)nc(N)c2[N+](=O)[O-])cc1	-2	-3
36	CN(C)CCn1c2c(c(SCC(=O)Nc3cc(C(F)(F)F)ccc3Cl)nc1=O)CCCC2	1	-2
37	Cc1csc(SCC(=O)Nc2cc(C)on2)n1	-4	-1
38	O=C(CN1CCSC1=O)NCCc1cc(Cl)c2c(c1)OCCO2	-5	1
39	Cc1c(C(=O)NCc2cccs2)sc(=O)n1Cc1ccc(F)cc1	5	9
40	CCOC(=O)c1cn[nH]c1S(=O)(=O)NCc1cccs1	-6	-3
41	O=C(Cc1cc(C(F)(F)F)cc(C(F)(F)F)c1)N1CC[C@H](CO)[C@H](O)C1	13	19
42	CCOCCOC(=NC1CCCc2ccccc21)NC(=O)c1ccc2c(c1)OCO2 (stereo not drawn)	3	-6
43	Cc1nn(CC(O)c2ccc(Cl)cc2)c(=O)c(C#N)c1C (stereo not drawn)	-2	-2
44	Cc1nc(SCC(=O)NCCc2cccs2)n(CC2CCCO2)c1C (stereo not drawn)	-3	0
45	CC1CC(C)N(C(=O)Cn2c3ccccc3c(=O)c3ccccc32)C1 (stereo not drawn)	-2	-1
46	N#C/C(=C\c1ccc(Cl)c([N+](=O)[O-])c1)c1nn(CCO)c(N)c1C#N	-3	0
47	O=c1ccn(CCOc2cc(Cl)cc(Cl)c2)c(Cl)c1	2	5
48	CCC(C)NC(=O)C1CCN(c2nc(C)c3ccc(S(C)(=O)=O)cc3n2)CC1 (stereo not drawn)	3	5
49	CCCN1CC(=Cc2ccsc2)C(=O)C(=Cc2ccsc2)C1	-24	-18
50	COc1ccccc1C(=O)N[C@H]1C[C@@H](C(=O)NCc2ccoc2)N(C)C1	4	10
51	CCCOC(=O)C1=C(C)NC2=C(C(=O)CC(c3ccccc3)C2)C1c1cc(Cl)c(O)c(OC)c1 (stereo not drawn)	-16	-9
52	CC(NC(=O)C1CC1c1ccc(C(F)(F)F)cc1)C1CC1 (stereo not drawn)	5	8
53	COc1ccc(N2CCN(C(=O)C3CCCCC3C(=O)NCc3ccccn3)CC2)cc1 (stereo not drawn)	-12	-8
54	OCC1(Cc2ccccc2)CCCN(Cc2ccc(Oc3ncccn3)cc2)C1 (stereo not drawn)	8	26
55	OC(CN1CCN(c2cccc(Cl)c2)CC1)C(c1ccccc1)c1ccccc1 (stereo not drawn)	-8	7
56	CCOc1ccc(-c2ccc3nnc(SCC(=O)N4CCCC4)n3n2)cc1	-3	-12
57	COc1ccccc1NC(=O)Cn1nc(-c2ccc(C)cc2)c2sc(C)nc2c1=O	-2	0
58	Cc1sc2ncnc(NCCC(C)n3ccnc3)c2c1C (stereo not drawn)	19	26
59	COc1cccc2sc(N3CCN(C(=O)C4=COCCO4)CC3)nc12	-2	-2
60	CCOC(=O)c1nc(-c2ccccc2)oc1NC	-8	-8

Retrieved by compound from the list above:
item	smiles	NPYLR7 agonist max-min	NPYLR7 agonist
37	Cc1csc(SCC(=O)Nc2cc(C)on2)n1	-4	-1
32	CCC(=O)C1=C(c2ccc(Cl)cc2)N(C(=O)CC)n2cnnc2S1	2	3
31	Cc1cc(C)c(C)c(OCCCNC(=O)c2scnc2C)c1	9	14

Next part.
item	smiles	NPYLR7 agonist max-min	NPYLR7 agonist
61	CC(Sc1nncn1-c1ccccc1)C(=O)NCc1ccccc1 (stereo not drawn)	3	5
62	Cc1ccc(Cl)cc1NC(=O)Cn1c[n+](C)c2ccccc21	-1	0
63	CCOc1cc(CN2CCC(n3cc(C(=O)NCC(C)C)nn3)CC2)ccc1O	-10	-3
64	CN(C)CC(C)(C)CNC(=O)C(=O)c1ccc(C2CCCCC2)cc1	-15	-9
65	Cc1nc(C(=O)NCc2ccco2)cs1	-4	-3
66	Cc1cccc(NC(=O)CSc2nccn(-c3ccc(F)c(F)c3)c2=O)c1	6	0
67	O=C(Oc1ccccc1)c1cc2cc([N+](=O)[O-])ccc2oc1=O	1	0
68	O=C1NC2(CCN(C(=O)C(c3ccccc3)c3ccccc3)CC2)Nc2ccc(Cl)c(Cl)c21	17	4
69	COCCNC(=O)Cn1nc2c(c1NC(=O)c1cccc(OC)c1OC)CSC2	5	-3
70	COc1ccc(/C=N\NC(=O)CSc2nc3ccccc3s2)cc1OC	18	23
71	Cc1cc(C)c(C2=CSC3=NS(=O)(=O)CCN23)cc1C	-2	1
72	CCOP(=O)(c1ccccc1)C1(O)CCCCC1 (stereo not drawn)	7	1
73	O=C(CCCc1cn[nH]c1)N1CCC(N2CCCC(C(=O)N3CCCC3)C2)CC1 (stereo not drawn)	-5	-5
74	CN1CCN(C(CNC(=O)NCc2ccccc2)c2ccsc2)CC1 (stereo not drawn)	-2	7
75	Fc1ccc(-c2noc(N3CCOCC3)c2CNCc2ccco2)cc1	23	12
76	C[C@H](C(=O)NCCOc1ccccc1)N1Cc2ccc(-c3cccnc3)nc2C1=O	19	4
77	CN=c1c([N+](=O)[O-])nn(-c2ccccc2)n1O	-18	-8
78	CN1[C@H]2CC[C@@H]1CN(C(=O)NCCc1ccccc1)CC2	19	27
79	CN1CCc2c(NC(=O)NCc3ccccc3)cccc21	-4	-1
80	CN(C)CCN(C(=O)C1CCCCC1)c1nc2cc3c(cc2s1)OCO3	-5	0
81	COc1ccc(-c2c(C)nn3c(N4CCCCC4)cc(C)nc23)cc1OC	2	2
82	O=C1NCCCC1Nc1nc(-c2ccccc2)nc2ccccc12 (stereo not drawn)	398	0
83	Cc1ccsc1C(=O)N1CCCC1(C)C(=O)NCC(C)C (stereo not drawn)	2	6
84	CCOCCn1nc(C)cc1C(=O)N1CCOC(c2ccc(F)cc2)C1 (stereo not drawn)	-1	0
85	CN1CCN(CCNCc2cccn2-c2nnc(N3CCCC3)s2)CC1	-2	0
86	Cc1nn(C)c(C)c1CCC(=O)Nc1ccc(C(C)(C)C#N)cc1	4	7
87	O=C(Nc1nc(-c2cc([N+](=O)[O-])cs2)cs1)c1ccc2ncsc2c1	-4	-1
88	CC1NCCN(c2ccc(Cl)cc2)C1=O (stereo not drawn)	0	-2
89	Cc1ccc(N2C(=O)/C(=C/C3CC=CCC3)SC2=S)cc1 (stereo not drawn)	-3	-1
90	O=C(NCc1ccco1)c1ccc(-c2cc(-c3ccc(N4CCCCC4)cc3)n[nH]2)cc1	10	1

The last six compounds of the part above come first, to join the parts:
item	smiles	NPYLR7 agonist max-min	NPYLR7 agonist
85	CN1CCN(CCNCc2cccn2-c2nnc(N3CCCC3)s2)CC1	-2	0
86	Cc1nn(C)c(C)c1CCC(=O)Nc1ccc(C(C)(C)C#N)cc1	4	7
87	O=C(Nc1nc(-c2cc([N+](=O)[O-])cs2)cs1)c1ccc2ncsc2c1	-4	-1
88	CC1NCCN(c2ccc(Cl)cc2)C1=O (stereo not drawn)	0	-2
89	Cc1ccc(N2C(=O)/C(=C/C3CC=CCC3)SC2=S)cc1 (stereo not drawn)	-3	-1
90	O=C(NCc1ccco1)c1ccc(-c2cc(-c3ccc(N4CCCCC4)cc3)n[nH]2)cc1	10	1
91	C=CCOCC(O)CN(CCOC)Cc1cc(C)ccc1C (stereo not drawn)	28	31
92	CCOCCCn1c(SCc2cc(OC)ccc2OC)nc2cc(S(=O)(=O)N3CCOCC3)ccc21	7	12
93	Cc1ccccc1NCN1C(=O)c2ccc([N+](=O)[O-])cc2C1=O	-8	1
94	O=C(Nc1ccc(SCCN2CCOCC2)nn1)c1cccs1	10	18
95	O=S(=O)(CCSc1ccc(Cl)cc1)OCC(F)(F)F	-6	-2
96	Cc1nnc2n(C3CCCCC3)c(=O)c3c4c(sc3n12)CCC4	2	7
97	COc1ccc(Cl)c(-c2c(-c3ccccc3)ncn2C[C@H](C)O)c1F	10	10
98	CCC(C)c1nn2c(=O)c(NC(=O)c3ccccc3)cnc2s1 (stereo not drawn)	1	2
99	COc1ccc(OC)c(CSc2nc3cc(S(=O)(=O)N4CCOCC4)ccc3n2CCCN2CCOCC2)c1	1	5
100	Cn1nnc(-c2ccc(C(=O)NCc3cnn4ccccc34)cc2)n1	1	2
101	COC(=O)c1sccc1S(=O)(=O)Nc1cccc(C)c1C(=O)OC	-1	3
102	CNC(=O)Cn1c(-n2nc(C)cc2C)nc(-c2ccccc2)cc1=O	-5	-9
103	COc1ccccc1CCC(=O)N1CCC(=O)N(CC2CC2)C(C(C)C)C1 (stereo not drawn)	6	8
104	Cc1ccc2nc(CN3CCCCC3CO)[nH]c2c1 (stereo not drawn)	9	6
105	O=C1NCC(=O)N2CCN(CC3=Cc4cc(Cl)ccc4OC3)CC12 (stereo not drawn)	-4	-1
106	O=C(Nc1ccc(-c2ccn[nH]2)cc1)C1CCCN(C2CCOCC2)C1 (stereo not drawn)	-5&-8	1&-5
107	Cc1ccsc1CN(Cc1ccc(F)cc1)Cc1nc(C(=O)N2CCOCC2)co1	7	3
108	CC1=NN(Cc2cccc(C)c2)c2nc3c(c(=O)n(C)c(=O)n3C)n2C1C (stereo not drawn)	-1	2
109	CCc1nc2ccc(C(=O)NCCN(C)C)cn2c1N(CC)Cc1cccc(Br)c1	17	21
110	Cc1cccc(Cc2c(C)nc(C)nc2N2CCN(C(=O)c3cccs3)CC2)c1	-3	-3
111	Cc1ccc(N2CCn3c2n[nH]c3=S)cc1	-4	-4
112	Cc1ccn2c(NC3CCCCC3)c(-c3cccc(OC(=O)C4C[C@H]4c4ccccc4)c3)nc2c1 (stereo partly drawn)	6	0
113	CC(=O)N[C@H]1CCN(Cc2cnc(-c3ccccc3C)s2)C1	-5	-3
114	CC(NC(=O)Nc1ncn(Cc2ccc(Cl)cc2)n1)C1CCCO1 (stereo not drawn)	6	7
115	CCc1noc(C(C)N2CCC(NC(=O)c3ccccc3)CC2)n1 (stereo not drawn)	4	6
116	O=C(CN1C(=O)NC2(CCc3ccccc32)C1=O)NC1CCCCCCC1 (stereo not drawn)	2	3
117	Oc1c2cccnc2cn1C(CCn1cncn1)c1ccccc1 (stereo not drawn)	12	11
118	Cc1cccn2c(=O)c(C=C3SC(=S)N(C4CCCCC4)C3=O)c(NCC3CCCO3)nc12 (stereo not drawn)	2	1
